# From PubChem
# HIV Env fusion: blocks HIV Env-driven cell-cell fusion. HeLa-JRFL Env/CEM21 cell fusion, luciferase. inhibition, % at 12.3 µM. 360,000 compounds, 1.1% hits;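 active = mean replicate inhibition score of at least 50 and every replicate individually at or above 50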;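 note: 0% = plate neutral controls and 100% = maraviroc near 300 nM; one replicate is shown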
# Active calls of the source: *; [ ] = another dose, or the depositor's remark.
# The first 3 records as a preview:
SMILES,HIV Env fusion
COc1ccccc1S(=O)(=O)N[C@H]1CC[C@H](CC(=O)NCc2cccc(F)c2)O[C@H]1CO,15[16.7 µM]
C[C@H]1CN([C@@H](C)CO)C(=O)c2cc(NS(=O)(=O)c3ccccc3)ccc2O[C@H]1CN(C)S(=O)(=O)c1ccc(F)cc1,12[16.7 µM]
C=CCN1C(=O)c2n[nH]c(COC)c2C1c1ccc2c(c1)OCO2 (stereo unspecified),15

# Main list (from the top)
SMILES,HIV Env fusion
COc1ccccc1S(=O)(=O)N[C@H]1CC[C@H](CC(=O)NCc2cccc(F)c2)O[C@H]1CO,15[16.7 µM]
C[C@H]1CN([C@@H](C)CO)C(=O)c2cc(NS(=O)(=O)c3ccccc3)ccc2O[C@H]1CN(C)S(=O)(=O)c1ccc(F)cc1,12[16.7 µM]
C=CCN1C(=O)c2n[nH]c(COC)c2C1c1ccc2c(c1)OCO2 (stereo unspecified),15
Cc1cc2c(nc1C)CCCN2Cc1ccc(Br)cc1,25
C[C@@H]1CCCCO[C@@H](CN(C)CC2CC2)[C@@H](C)CN([C@H](C)CO)C(=O)c2cc(NC(=O)Nc3ccccc3)ccc2O1,2[16.7 µM]
Cc1ccc2nc3n(c(=O)c2c1)-c1ccccc1C(=O)NC3Cc1ccc(O)cc1 (stereo unspecified),-22
C[C@@H]1CN([C@H](C)CO)C(=O)c2cc(C3=CCCC3)cnc2O[C@H]1CN(C)C(=O)C1CC1,-9[16.7 µM]
COC(=O)c1cc2c(c3c4cc(OC)ccc4n(S(=O)(=O)c4cccc(C)c4)c13)C(=O)N(Cc1ccc(C(F)(F)F)cc1)C2,-1
CO[C@H]1CC[C@@H]2CCOc3ccc(C#N)cc3C(=O)N(C)C[C@@H](C)C(=O)N(C)C[C@@H]1O2,5[16.7 µM]
CCN1[C@@H]2Cn3c(ccc(-c4ccccc4)c3=O)[C@H]1[C@@H](C(=O)NCCCN1CCOCC1)[C@@H]2CO,11[16.7 µM]
CCN1[C@@H]2Cn3c(ccc(-c4ccccc4F)c3=O)[C@H]1[C@@H](C(=O)NCc1ccc(F)cc1)[C@@H]2CO,2[16.7 µM]
CO[C@@H]1CC[C@H]2CCOc3ccc(C#N)cc3C(=O)N(C)[C@@H](C)C(=O)N(C)C[C@H]1O2,7[16.7 µM]
CCC(=O)N1CC2(CN(C(=O)Cc3ccccc3)C2)c2c(n(C)c3cc(OC)ccc23)[C@@H]1CO,-24[16.7 µM]
CCCCc1c(-c2ccccc2OC)ncn1Cc1ccc(F)c(F)c1,-21
CN1CCN(C(=O)C[C@H]2C=C[C@H](NC(=O)Nc3ccccc3F)[C@H](CO)O2)CC1,-1[16.7 µM]
Nc1[nH]c(C(=O)c2ccccc2)c(-c2cccc3ccccc23)c1C(=O)NC1CCCCC1,-11
Cc1cccc(Cl)c1NC(=O)NCCCN1CCOCC1,3
C[C@H](NC(=O)C[C@H]1CC[C@H](NC(=O)c2cccnc2)[C@H](CO)O1)c1ccccc1,5[16.7 µM]
CO[C@@H]1CC[C@H]2CCOc3c(C#N)cccc3C(=O)N(C)CC3(CCCCC3)CC(=O)N(C)C[C@H]1O2,3[16.7 µM]
O=C(c1ccccc1)N1CCC2CCN(S(=O)(=O)c3ccccc3)CC21 (stereo unspecified),-14
C[C@H]1CN([C@@H](C)CO)C(=O)CCCn2cc(nn2)CO[C@H]1CN(C)C(=O)OCc1ccccc1,-7[16.7 µM]
CN1C(=O)c2cc(NC(=O)c3cnccn3)ccc2OC[C@@H]2O[C@H](CC(=O)NCC3CCCCC3)CC[C@@H]21,43[16.7 µM]
CC=Cc1ccc2n(c1=O)C[C@H]1[C@H](CO)[C@@H](C(=O)NC3CCC3)[C@@H]2N1C(=O)c1ccccn1 (mixture of isomers),16[16.7 µM]
Cc1cccc(S(=O)(=O)N[C@H]2CC[C@@H](CCNC(=O)c3cnccn3)O[C@H]2CO)c1,2[16.7 µM]
COc1ccccc1S(=O)(=O)N(C)C[C@@H]1OCc2ccccc2-c2c(n(C)c3ccccc23)C(=O)N([C@H](C)CO)C[C@@H]1C,32[16.7 µM]
Cc1ccc(-c2ccc3c(c2)O[C@@H](CN(C)C(=O)C2CCCCC2)[C@H](C)CN([C@@H](C)CO)S3(=O)=O)cc1,-15[16.7 µM]
CN1C(=O)N[C@@H]2c3ccccc3O[C@@]1(C)[C@@H]2COC(=O)c1ccc([N+](=O)[O-])cc1,-2[16.7 µM]
CO[C@@H]1CC[C@H]2CCN(C)C(=O)CCCN(C)C(=O)c3cccc(C#N)c3OC[C@H]1O2,-34[16.7 µM]
COc1ccccc1NC(=O)C[C@H]1CC[C@H]2[C@@H](COc3ccc(NC(C)=O)cc3C(=O)N2C)O1,-6[16.7 µM]
C[C@H](CO)N1C[C@H](C)[C@@H](CN(C)Cc2ccc(-c3ccccc3)cc2)Oc2ccc(NC(=O)Cc3cn(C)c4ccccc34)cc2CC1=O,-19[16.7 µM]
CO[C@@H]1CN(C)C(=O)c2ccc(NC(C)=O)cc2OC[C@@H](C)N(C(=O)CN(C)C)C[C@H]1C,-18[16.7 µM]
CNC[C@@H]1OCCCC[C@H](C)Oc2ccc(NS(=O)(=O)c3cccs3)cc2C(=O)N([C@@H](C)CO)C[C@@H]1C,-7[16.7 µM]
COc1ccc(NC(=O)Nc2ccc3c(c2)[C@H]2C[C@H](CC(=O)NCC(F)(F)F)O[C@@H](CO)[C@H]2O3)cc1,-22[16.7 µM]
O=C(C1CCCC1)N1[C@H](CO)[C@H](c2ccccc2)C12CN(CCC(F)(F)F)C2,43[16.7 µM]
COC(=O)[C@]12C[C@H](CC(=O)N3CCCC3)C(=O)N(CCC3=CCCCC3)C1=C[C@H](COCc1ccccc1)O[C@@H]2C,6
O=C(Nc1ccc2c(c1)[C@@H]1C[C@@H](CC(=O)N3CCc4ccccc4C3)O[C@@H](CO)[C@@H]1O2)c1cccnc1,2[16.7 µM]
C=CCCC1CN(Cc2ccc(OC)cc2)S(=O)(=O)c2c(cccc2Sc2ccc(OC)c(OC)c2)O1 (stereo unspecified),25
COC(=O)C1=C(C)N(Cc2ccc(C(F)(F)F)cc2)C(=NCc2ccc(OC)cc2)NC1c1ccccc1C(F)(F)F (stereo unspecified),-134
O=C(NCC[C@H]1CC[C@@H](NC(=O)c2cccnc2)[C@H](CO)O1)Nc1ccc(C(F)(F)F)cc1,25[16.7 µM]
COc1ccccc1-c1cccc(-c2nc(C(=O)N3CCN(C)CC3)cc3c2[C@H](CCO)N([S@@](=O)C(C)(C)C)C3)c1,-5[16.7 µM]
COc1ccc(S(=O)(=O)N(C)C[C@@H]2Oc3c(NC(=O)Nc4c(C)noc4C)cccc3C(=O)N([C@H](C)CO)C[C@H]2C)cc1,-15[16.7 µM]
C[C@@H]1CCCCO[C@H](CN(C)Cc2ccncc2)[C@H](C)CN([C@@H](C)CO)C(=O)c2cc(NC(=O)Nc3ccccc3)ccc2O1,-37[16.7 µM]
C[C@@H]1CCCCO[C@@H](CN(C)C(=O)Nc2ccc(C(F)(F)F)cc2)[C@@H](C)CN([C@H](C)CO)C(=O)c2cc(NS(=O)(=O)c3cccs3)ccc2O1,-60[16.7 µM]
CC(C)NC(=O)N(C)C[C@@H]1OCCCC[C@@H](C)Oc2ccc(NC(=O)CCCN(C)C)cc2C(=O)N([C@H](C)CO)C[C@@H]1C,5[16.7 µM]
CCCNC(=O)N1C[C@@H](O)COC[C@H]2O[C@H](CC(=O)NCc3ccncn3)CC[C@@H]21,9[16.7 µM]
C[C@@H]1CN([C@H](C)CO)C(=O)c2c(c3ccccc3n2C)-c2ccccc2CO[C@H]1CN(C)C(=O)[C@H]1CCCN1C,0[16.7 µM]
O=C(NCc1ccccc1)[C@@H]1CCCN1C(=O)[C@H]1CCCN1C(=O)c1ccc(OC(F)(F)F)cc1,18
COC(=O)c1cc2c(c3c4cc(F)ccc4n(S(=O)(=O)c4ccccc4)c13)C(=O)N(Cc1ccc(N(C)C)cc1)C2,-8
O=[N+]([O-])c1ccc(CN2[C@H](COCc3ccccc3)C=CS2(=O)=O)cc1,-22
COC(=O)c1cc2c(c3c4cc(C)ccc4n(S(=O)(=O)c4ccc(C)cc4)c13)C(=O)N(Cc1ccccc1)C2,8
COc1cccc(S(=O)(=O)Nc2ccc3c(c2)[C@H]2C[C@@H](CC(=O)NCCc4ccccc4)O[C@H](CO)[C@H]2O3)c1,42[16.7 µM]
Cc1ccccc1CN1[C@@H](C)[C@H](c2ccccc2)Oc2cccc(N3CCCC(C)C3)c2S1(=O)=O (stereo partly specified),19
COCC(=O)Nc1ccc2c(c1)[C@@H]1C[C@@H](CC(=O)N3CCOCC3)O[C@H](CO)[C@@H]1O2,-8[16.7 µM]
CCCN(C)C[C@@H]1Oc2ncc(-c3ccccc3)cc2C(=O)N([C@@H](C)CO)C[C@@H]1C,1[16.7 µM]
CC(=O)O[C@@H]1C=C[C@@H](C#Cc2ccc(C(C)(C)C)cc2)O[C@@H]1COC(=O)NC(C)C,-48
COc1cc(NC(=O)[C@@H](Cc2ccccc2)NC(=O)[C@H]2O[C@@H](n3ccc(=O)[nH]c3=O)[C@H](O)[C@@H]2O)cc(OC)c1OC,18
C[C@@H]1CN([C@@H](C)CO)C(=O)c2ccccc2-c2ccccc2CO[C@H]1CN(C)S(=O)(=O)c1cccs1,-24[16.7 µM]
Cc1cc(C(=O)Nc2ccc3c(c2)C(=O)N(C)[C@@H]2CC[C@@H](CC(=O)NC4CCCC4)O[C@@H]2CO3)no1,-2[16.7 µM]
C[C@H](NC(=O)C[C@H]1C[C@H]2c3cc(N(C)C)ccc3O[C@H]2[C@H](CO)O1)c1ccccc1,8[16.7 µM]
CO[C@@H]1CN(C)C(=O)c2ccc(NC(=O)c3cnccn3)cc2OC[C@H](C)NC[C@@H]1C,4[16.7 µM]

# Continued:
SMILES,HIV Env fusion
Cc1ccc(S(=O)(=O)NC[C@H]2CC[C@@H]3[C@@H](CN3C(=O)CN(C)C)O2)cc1,-13[16.7 µM]
C[C@@H]1CN([C@@H](C)CO)C(=O)c2ccccc2-c2ccccc2CO[C@@H]1CN(C)S(=O)(=O)c1cccs1,-11[16.7 µM]
COC(=O)C1=C(C)N(C)C(=NCc2ccccc2)NC1CCc1ccccc1 (stereo unspecified),11
CN(C)CC#Cc1cccc(-c2nc(C(=O)NCc3ccc4c(c3)OCO4)cc3c2[C@H](CCO)N(S(=O)C(C)(C)C)C3)c1 (stereo partly specified),-50[16.7 µM]
S=C(NN=C1CCCCC1=NNC(=S)N1CCOCC1)N1CCOCC1,67*
COc1cccc(NC(=O)N(C)C[C@H]2OCc3ccccc3-c3ccccc3C(=O)N([C@H](C)CO)C[C@@H]2C)c1,18[16.7 µM]
CC(C)(C)[S@@](=O)N1Cc2cc(C(=O)NCc3ccc4c(c3)OCO4)nc(-c3cccc(-c4ccncc4)c3)c2[C@H]1CCO,1[16.7 µM]
C[C@H]1CN([C@@H](C)CO)S(=O)(=O)c2ccc(-c3ccc(F)cc3)cc2O[C@@H]1CN(C)C(=O)C1CCC1,28[16.7 µM]
COc1ccc(CNC(=O)C[C@H]2C=C[C@H](NS(=O)(=O)c3cccc(OC)c3)[C@H](CO)O2)cc1,-1[16.7 µM]
C=CCN=C1NC(CCc2ccccc2)C(C(=O)OC)=C(C)N1C (stereo unspecified),21
CN(C)C(=O)C[C@@H]1CC[C@@H]2[C@H](COC[C@@H](O)CN2C(=O)C2CCCC2)O1,4[16.7 µM]
C[C@H](NC(=O)C[C@@H]1C[C@@H]2c3cc(NC(=O)Nc4ccc(C(F)(F)F)cc4)ccc3O[C@@H]2[C@@H](CO)O1)c1ccccc1,81*[16.7 µM]
Cc1nnc2nc(N)[nH]n2c1=O,-36
COc1cccc(S(=O)(=O)Nc2ccc3c(c2)[C@@H]2C[C@H](CC(=O)NC4CCCCC4)O[C@H](CO)[C@@H]2O3)c1,-13[16.7 µM]
Cc1noc(C)c1NC(=O)N(C)C[C@@H]1Oc2ccc(NC(=O)CCC(F)(F)F)cc2C(=O)N([C@H](C)CO)C[C@H]1C,-2[16.7 µM]

# Structures listed so far that have a cyano group, in the order listed:
SMILES,HIV Env fusion
CO[C@H]1CC[C@@H]2CCOc3ccc(C#N)cc3C(=O)N(C)C[C@@H](C)C(=O)N(C)C[C@@H]1O2,5[16.7 µM]
CO[C@@H]1CC[C@H]2CCOc3ccc(C#N)cc3C(=O)N(C)[C@@H](C)C(=O)N(C)C[C@H]1O2,7[16.7 µM]
CO[C@@H]1CC[C@H]2CCOc3c(C#N)cccc3C(=O)N(C)CC3(CCCCC3)CC(=O)N(C)C[C@H]1O2,3[16.7 µM]
CO[C@@H]1CC[C@H]2CCN(C)C(=O)CCCN(C)C(=O)c3cccc(C#N)c3OC[C@H]1O2,-34[16.7 µM]

# The list continues:
SMILES,HIV Env fusion
COC(=O)c1ccc2nc(C3CCCCC3)c(Cc3ccccc3OC)n2c1,2
Nc1nc2c(ncn2[C@@H]2O[C@H](C(=O)NCCCc3ccccc3)[C@@H](O)[C@H]2O)c(=O)[nH]1,-21
COC(=O)C1=C(C)N(Cc2ccccc2C(F)(F)F)C(=NCc2ccc(C(F)(F)F)cc2)NC1c1ccc(C(F)(F)F)cc1 (stereo unspecified),-16
CO[C@@H]1CN(C)C(=O)c2cc(NC(=O)Nc3ccc(Cl)cc3)ccc2OC[C@@H](C)N(C(=O)Nc2c(C)noc2C)C[C@H]1C,11[16.7 µM]
CC(C)[C@H]1COCn2nncc2CCCC(=O)N1,-18[16.7 µM]
COc1ccccc1C(=O)Nc1ccc2c(c1)C(=O)N(C)[C@@H]1CC[C@@H](CC(=O)NCCc3ccncc3)O[C@H]1CO2,7[16.7 µM]

# These rows are one share of the data. The share of hits here may be higher or lower than overall.
